Screening results deposited in PubChem BioAssay by several laboratories.
rRNA inh HTS – reduced GFP signal of wild-type E. coli, primary screen, bacterial rRNA inhibitor project, GFP/RFP fluorescence, OD600, single point; 1.6% of 350,000 active; E. coli WT GFP vs humanized-ribosome RFP mutants, 24 h; stronger effect = lower value; DMSO median 0, no signal -100; GFP signal change (wild-type ribosome), % (concentration not given with the values); AID 720706, 2013;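 active means significant combined selectivity score with lowered wild-type GFP, culture density cut under 30%, mutant RFP and density less affected; inactive means any of these conditions unmet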; further: one replicate is shown; some compounds called inactive have numbers as strong as hits
Beta apoptosis – inhibitors of cytokine-induced beta cell apoptosis, primary screen, luminescence. protection from apoptosis, % (test concentration not listed). INS-1E cytokine-induced death, ATP luminescence, 48 h; percent of positive-control rescue, neutral wells zero. AID 435005, 2010. 0.8% of 300,000 active;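 active means all replicates at 75% or more, or half of them and the mean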;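 further: 0% = cytokine-treated negative control wells and 100% = positive control rescue; higher means more ATP so stronger rescue from cytokine killing; wells of about 40 µL received 100 nL stock; the first replicate is given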
A1 inh – caspase 3/7 activation in MEF A1-2A-BIM cells, primary screen, A1 inhibitor project, cell-based, luminescence, HTS | AID 2462, 2010 | 0.066% of 330,000 active | caspase activation, % (concentration not given with the values) | Caspase-Glo 3/7 luminescence, 3 h; percent of clofoctol response, vehicle zero;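 active means over half of replicate activation scores above 10%, or exactly half above 10 with the replicate mean above 10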;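 further: wells of about 30 µL received 50 nL stock; many hits fall short of the cut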
FGF22 binding – binders of human FGF22 protein, primary screen, FGF22 synaptogenesis inhibitor project, biophysical, thermal shift, single point; recombinant FGF22 thermal shift, SYPRO orange fluorescence; percent of sucrose octasulfate shift, DMSO zero; Fibroblast growth factor 22 (Homo sapiens), Q9HCT0; 1.5% of 340,000 active; calls only at 9.99 µM;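 active means melting point raised past a set limit in the mean and every replicate; three in four hits are not shown here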
Target sequence (Q9HCT0 whole entry, looked up): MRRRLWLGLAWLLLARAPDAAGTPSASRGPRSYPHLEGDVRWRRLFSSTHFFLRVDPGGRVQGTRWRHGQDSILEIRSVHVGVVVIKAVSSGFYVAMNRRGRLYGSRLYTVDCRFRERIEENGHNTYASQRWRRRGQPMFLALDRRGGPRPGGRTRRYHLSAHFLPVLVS
AF4-AF9 inh – inhibitors of AF4 peptide binding to AF9, primary screen, biochemical, AlphaScreen, biotin-AF4 peptide, FLAG-AF9, single point. Protein AF-9 (Homo sapiens), P42568. inhibition, % at 10 µM. 0.47% of 350,000 active;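 active means every replicate reaching a set inhibition limit, whatever the replicate mean, cut at about 25% in these data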;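 further: 0% = plate neutral control median and 100% = total signal loss; the record names both 10 and 1 µM as test concentration; the first replicate is given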
Target sequence (P42568 whole entry, looked up): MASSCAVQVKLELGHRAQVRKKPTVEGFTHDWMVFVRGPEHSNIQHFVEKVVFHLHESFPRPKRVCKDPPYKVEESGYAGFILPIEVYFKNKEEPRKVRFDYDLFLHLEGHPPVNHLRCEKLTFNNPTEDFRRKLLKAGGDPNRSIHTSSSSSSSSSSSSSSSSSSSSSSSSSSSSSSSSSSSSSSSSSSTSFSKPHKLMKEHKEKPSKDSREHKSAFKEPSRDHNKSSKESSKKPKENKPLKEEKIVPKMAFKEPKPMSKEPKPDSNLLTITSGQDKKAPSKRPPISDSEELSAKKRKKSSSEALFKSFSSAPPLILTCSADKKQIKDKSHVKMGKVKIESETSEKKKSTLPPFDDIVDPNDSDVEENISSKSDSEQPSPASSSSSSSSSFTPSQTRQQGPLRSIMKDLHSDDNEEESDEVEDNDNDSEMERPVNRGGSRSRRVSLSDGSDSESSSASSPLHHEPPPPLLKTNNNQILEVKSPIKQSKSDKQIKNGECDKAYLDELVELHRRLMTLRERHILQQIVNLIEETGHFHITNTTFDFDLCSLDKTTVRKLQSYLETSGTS
Ecoli growth – E. coli growth inhibition, primary screen, OD600 | Escherichia coli growth, 23 h; stronger effect = lower value | OD600 absorbance (no concentration beside the values) | 0.21% of 330,000 active | AID 1053175, 2014;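 active means OD600 absorbance below the run mean of sample wells minus 3.6 SD, in any replicate, cut at about 0.56 in these data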;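 further: stock transfer was 300 nL into about 60 µL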
UCH37 DUB inh – inhibitors of human UCH37 deubiquitinase, primary screen, biochemical, Ub-AMC cleavage, fluorescence; Ubiquitin carboxyl-terminal hydrolase isozyme L5 (Homo sapiens), Q9Y5K5; purified proteasome/UCH37; inhibition, % (concentration not given with the values); 0.33% of 330,000 active; AID 588478, 2011;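 active means mean of two replicates above 20%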;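 further: 0% = compound-free wells with enzyme and 100% = wells lacking proteasome; stock transfer was 100 nL into about 20 µL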
Target sequence (Q9Y5K5 whole entry, looked up): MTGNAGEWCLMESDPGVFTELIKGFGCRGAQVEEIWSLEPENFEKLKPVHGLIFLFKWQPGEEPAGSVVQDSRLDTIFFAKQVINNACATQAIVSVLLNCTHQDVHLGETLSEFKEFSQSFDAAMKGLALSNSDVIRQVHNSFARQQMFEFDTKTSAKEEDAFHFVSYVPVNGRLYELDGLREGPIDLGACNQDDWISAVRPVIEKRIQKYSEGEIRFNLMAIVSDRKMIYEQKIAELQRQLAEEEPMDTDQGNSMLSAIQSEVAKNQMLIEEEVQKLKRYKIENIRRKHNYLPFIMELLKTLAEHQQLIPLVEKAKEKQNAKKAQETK
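Schedule: 30 min plus 25 min, room temperature / Material: human UCH37 within purified proteasomes / Technique: AMC fluorescence intensity at 355/460 nm / Buffer or medium: pH 7.4 Tris-HCl (50 mM) with ovalbumin, ATP-MgCl2, DTT / Controls: wells without proteasome as full block, compound-free enzyme plus substrate as uninhibited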
T cruzi repl – inhibitors of intracellular T. cruzi growth, primary screen, luminescence, NIH3T3 host cells | T. cruzi beta-gal in NIH3T3, 90 h | inhibition, % (no concentration beside the values) | 1.4% of 300,000 active | AID 1885, 2009;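 active means mean inhibition across valid replicates above about 55%, limit read from the data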;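 further: signal also drops with host cell toxicity which is not excluded here; 0% = plate median of DMSO wells and 100% = zero luminescence signal; higher percent means less beta-gal luminescence so fewer parasites; stock transfer was 50 nL into about 50 µL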
rRNA inh HTS OD600 – recorded beside rRNA inh HTS, whose call it bears; OD600 change, %; measured here: OD600 growth;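 optical density of the mix in the first replicate; 0 = DMSO median and -100 = no signal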
rRNA inh HTS RFP – recorded beside rRNA inh HTS, whose call it bears; RFP signal change, %; measured here: RFP humanized mutant strains;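 first replicate; 0 = DMSO median and -100 = no signal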
Starred values were filed as active, the others as inactive. This is a subset (hit frequency here may not be typical).

`COc1ccc2nc3n(c(=O)c2c1)-c1cc(Cl)ccc1C(=O)NC3Cc1ccccc1` (centres undefined) gave rRNA inh HTS 3.7, Beta apoptosis -5.9, A1 inh 0.3, FGF22 binding inactive, AF4-AF9 inh 3.4, rRNA inh HTS OD600 11.6 and rRNA inh HTS RFP 2.4.
For CCOC(=O)c1oc2cc(O)cc(O)c2c(=O)c1OCc1ccccc1 the results were rRNA inh HTS -5.5, Beta apoptosis -3.8, A1 inh -0.2, FGF22 binding inactive, AF4-AF9 inh 0.2, Ecoli growth 0.726, UCH37 DUB inh 6.2, T cruzi repl 5.4, rRNA inh HTS OD600 16.8 and rRNA inh HTS RFP -2.2.
CCNC(=S)N/N=C1\C(=O)c2cccc3cccc1c23 was read as Beta apoptosis 10.4, A1 inh 0.4, Ecoli growth 0.763, UCH37 DUB inh 5.2 and T cruzi repl 23.1.
Screening COc1ccccc1NC(=O)c1cc(S(=O)(=O)NCc2ccccc2)ccc1F returned rRNA inh HTS -5.7, Beta apoptosis 1.8, A1 inh 1.1, FGF22 binding inactive, AF4-AF9 inh 2.0, Ecoli growth 0.688, UCH37 DUB inh 2.6, T cruzi repl 11.7, rRNA inh HTS OD600 14.4 and rRNA inh HTS RFP -3.2.
Screening Cc1ccc(NC(=O)c2cc(-c3ccc(C)o3)nc3ccccc23)cc1 returned A1 inh -0.9, Ecoli growth 0.724, UCH37 DUB inh -86.6 and T cruzi repl 5.0.
C=CCN1CCN(c2ccncc2S(=O)(=O)N2CCOCC2)CC1 was read as Beta apoptosis 2.9, A1 inh -0.2, Ecoli growth 0.714, UCH37 DUB inh 3.6 and T cruzi repl -2.0.
Cc1nn(-c2ccc(F)cc2)c2nc(N)c(C#N)c(-c3ccc(O)c(O)c3)c12 was read as rRNA inh HTS -18.1*, Beta apoptosis -1.7, A1 inh 0.7, FGF22 binding inactive, AF4-AF9 inh 4.9, Ecoli growth 0.671, UCH37 DUB inh -25.7, T cruzi repl 59.2*, rRNA inh HTS OD600 -7.3* and rRNA inh HTS RFP 7.5*.
Screening CC(=O)Nc1sc(N/N=C\c2ccccc2Cl)nc1-c1cccs1 returned rRNA inh HTS 8.5, Beta apoptosis 1.1, A1 inh -0.1, FGF22 binding inactive, AF4-AF9 inh 0.8, T cruzi repl -8.0, rRNA inh HTS OD600 3.6 and rRNA inh HTS RFP 1.5.
For Cc1cc(C(=O)Nc2nnc(C(F)(F)F)s2)no1 the results were rRNA inh HTS -15.3, Beta apoptosis 4.4, A1 inh -0.3, FGF22 binding inactive, AF4-AF9 inh -51.3, Ecoli growth 0.663, UCH37 DUB inh 3.4, T cruzi repl -20.9, rRNA inh HTS OD600 -9.7 and rRNA inh HTS RFP -6.8.
Screening CC(=C/C(=O)O)/C=C/c1ccc(Cl)o1 returned Beta apoptosis -3.2, A1 inh -1.8, Ecoli growth 0.765, UCH37 DUB inh 2.2 and T cruzi repl 8.6.
For COc1ccc(N(C)S(=O)(=O)c2cccc(C(=O)NC3=NCCS3)c2)cc1 the results were Beta apoptosis -1.4, A1 inh -0.2, Ecoli growth 0.703, UCH37 DUB inh 0.3 and T cruzi repl 2.6.
`CCCCN(CC)CCCNC(=O)c1cn(-c2ccc(OC)cc2)c(=O)c2ccccc12` gave rRNA inh HTS 10.5, Beta apoptosis -1.8, A1 inh -0.6, FGF22 binding inactive, AF4-AF9 inh -1.8, Ecoli growth 0.672, UCH37 DUB inh 2.3, T cruzi repl 58.2*, rRNA inh HTS OD600 11.9 and rRNA inh HTS RFP -1.2.
For COc1cc(NC(=O)c2ccco2)c(OC)cc1NC(=O)CCC(=O)Nc1cccc(C)c1C the results were Beta apoptosis -4.4, A1 inh 0.1, Ecoli growth 0.731 and UCH37 DUB inh -6.3.
`CCCCC(=O)Nc1ccc(C(=O)NN2C(=O)c3ccccc3C2=O)cc1` gave rRNA inh HTS 7.2, Beta apoptosis -4.0, A1 inh 0.0, FGF22 binding inactive, AF4-AF9 inh 1.1, Ecoli growth 0.694, UCH37 DUB inh 5.0, T cruzi repl -12.7, rRNA inh HTS OD600 -2.8 and rRNA inh HTS RFP -5.7.
Screening CC(C)CCn1c(SCC(=O)NC2CCS(=O)(=O)C2)nc2cc(Cl)ccc2c1=O (centres undefined) returned rRNA inh HTS 5.8, Beta apoptosis 1.5, A1 inh 0.4, FGF22 binding inactive, AF4-AF9 inh 9.1, Ecoli growth 0.702, UCH37 DUB inh 4.5, T cruzi repl -8.2, rRNA inh HTS OD600 19.4 and rRNA inh HTS RFP -2.1.
Screening O=C(NC(=S)Nc1ccccc1N1CCCC1)c1ccccc1[N+](=O)[O-] returned Beta apoptosis -0.6, A1 inh 0.5, Ecoli growth 0.701, UCH37 DUB inh 1.5 and T cruzi repl 7.3.
Cc1nc(NC(=O)COC(=O)CCc2ccccc2)c(Cl)cc1Cl was read as rRNA inh HTS 6.6, Beta apoptosis -3.9, A1 inh 1.7, FGF22 binding inactive, AF4-AF9 inh 0.5, Ecoli growth 0.696, UCH37 DUB inh -6.8, rRNA inh HTS OD600 13.2 and rRNA inh HTS RFP -2.0.
Screening Cc1c(NS(=O)(=O)N2CCCCC2)c(=O)n(-c2ccccc2)n1C returned Beta apoptosis -1.9, A1 inh -0.1, Ecoli growth 0.618, UCH37 DUB inh 1.4 and T cruzi repl -16.4.
`O=C(O)CN1CCN(Cc2ccc(Cl)cc2)C1=O` gave rRNA inh HTS 12.0, Beta apoptosis -5.2, A1 inh 0.7, FGF22 binding inactive, AF4-AF9 inh -23.5, Ecoli growth 0.651, UCH37 DUB inh 5.7, T cruzi repl -17.7, rRNA inh HTS OD600 -1.3 and rRNA inh HTS RFP -0.7.
`OC12CCCCC1C(c1ccc3c(c1)OCO3)N(Cc1ccccc1F)CC2` (centres undefined) gave Beta apoptosis 8.3, A1 inh 0.2, Ecoli growth 0.713, UCH37 DUB inh 1.8 and T cruzi repl 39.7.
`Cc1cc(NS(=O)(=O)c2ccc(NC(=O)CCCOc3cccc(C)c3C)cc2)no1` gave rRNA inh HTS -11.8, Beta apoptosis -0.5, A1 inh 0.3, FGF22 binding inactive, AF4-AF9 inh -0.8, Ecoli growth 0.738, UCH37 DUB inh 5.9, T cruzi repl -2.7, rRNA inh HTS OD600 -11.3 and rRNA inh HTS RFP -4.4.
For CCOC(=O)N1CCN(S(=O)(=O)c2ccc(C(=O)Nc3sc4c(c3C(N)=O)CCN(CC)C4)cc2)CC1 the results were rRNA inh HTS -1.8, A1 inh 0.7, FGF22 binding inactive, AF4-AF9 inh -2.7, Ecoli growth 0.696, UCH37 DUB inh 0.5, T cruzi repl 5.9, rRNA inh HTS OD600 3.9 and rRNA inh HTS RFP -2.0.
Screening C=CCN1/C(=C(\C#N)C2=NS(=O)(=O)c3ccccc32)N(C)c2ccccc21 returned Beta apoptosis -7.5, A1 inh 0.3, Ecoli growth 0.653, UCH37 DUB inh 9.4 and T cruzi repl -16.5.
`Cc1cc(NC(=O)c2ccc(-c3ccc(F)c(Cl)c3)o2)no1` gave rRNA inh HTS 1.1, Beta apoptosis 5.1, A1 inh -0.1, FGF22 binding inactive, AF4-AF9 inh -2.3, Ecoli growth 0.728, UCH37 DUB inh -5.0, T cruzi repl 29.5, rRNA inh HTS OD600 8.2 and rRNA inh HTS RFP 0.1.
Screening COc1cc(NS(=O)(=O)c2ccc(Nc3nc(-c4ccccn4)cs3)cc2)nc(OC)n1 returned rRNA inh HTS -38.8, Beta apoptosis 2.0, A1 inh -0.7, FGF22 binding inactive, AF4-AF9 inh -5.5, Ecoli growth 0.697, UCH37 DUB inh 0.8, T cruzi repl -5.4, rRNA inh HTS OD600 -40.1 and rRNA inh HTS RFP -7.2.
Screening Cc1cc(NCCc2ccccc2F)n2ncnc2n1 returned rRNA inh HTS 14.0, Beta apoptosis 8.9, A1 inh -0.3, FGF22 binding inactive, AF4-AF9 inh 0.2, Ecoli growth 0.677, UCH37 DUB inh 1.7, T cruzi repl -19.1, rRNA inh HTS OD600 10.7 and rRNA inh HTS RFP 2.9.
CCCCN(C(=O)/C=C/c1ccco1)c1c(N)n(CCC)c(=O)[nH]c1=O was read as rRNA inh HTS 8.0, Beta apoptosis -5.3, A1 inh 0.3, FGF22 binding inactive, AF4-AF9 inh -0.5, Ecoli growth 0.734, UCH37 DUB inh 3.2, T cruzi repl -11.5, rRNA inh HTS OD600 9.7 and rRNA inh HTS RFP 2.5.
Screening CC(=O)c1ccc(N2CCN(C(=O)C3CCCN(c4ncnc5c4nc4n5CCCCC4)C3)CC2)cc1 (centres undefined) returned rRNA inh HTS 3.4, Beta apoptosis 12.1, A1 inh 0.0, FGF22 binding inactive, AF4-AF9 inh 0.5, Ecoli growth 0.666, UCH37 DUB inh 0.9, T cruzi repl 21.3, rRNA inh HTS OD600 3.6 and rRNA inh HTS RFP -4.3.
For NNC(=O)C12CC3CC(C1)CC(n1ncnn1)(C3)C2 the results were Beta apoptosis -5.8, A1 inh -0.4, Ecoli growth 0.702, UCH37 DUB inh 5.7 and T cruzi repl -2.7.
For COc1ccccc1N(O)C1CC(=O)N(c2ccc(F)cc2)C1=O (centres undefined) the results were Beta apoptosis -1.3, A1 inh 0.3, Ecoli growth 0.696, UCH37 DUB inh 2.3 and T cruzi repl 0.5.
CCOC(=O)c1nn(-c2ccccc2C)c2nc(CC(C)C)c(C#N)c(=O)n12 was read as Beta apoptosis 1.8, A1 inh -0.3, Ecoli growth 0.71, UCH37 DUB inh -1.2 and T cruzi repl -11.2.
For C=CCn1c(SCC(=C)C)nc2c1c(=O)[nH]c(=O)n2C the results were rRNA inh HTS -2.3, Beta apoptosis -1.6, A1 inh 1.1, FGF22 binding inactive, AF4-AF9 inh -0.1, Ecoli growth 0.709, UCH37 DUB inh 5.8, T cruzi repl -6.8, rRNA inh HTS OD600 -4.4 and rRNA inh HTS RFP -2.1.
For CC(=O)NC12CC3CC(C1)CC(C(=O)N1CCN(S(=O)(=O)c4cccc([N+](=O)[O-])c4)CC1)(C3)C2 the results were rRNA inh HTS 2.5, FGF22 binding inactive, AF4-AF9 inh 3.3, Ecoli growth 0.677, UCH37 DUB inh 0.9, rRNA inh HTS OD600 8.9 and rRNA inh HTS RFP -1.9.
CC(=O)c1ccc(NC(=O)NC2CCCCCCC2)cc1 was read as rRNA inh HTS -43.1, Beta apoptosis 5.7, A1 inh -0.6, FGF22 binding inactive, AF4-AF9 inh 0.0, Ecoli growth 0.636, UCH37 DUB inh -0.7, rRNA inh HTS OD600 -78.2 and rRNA inh HTS RFP -15.0.
